From PubChem BioAssay
Vif TR-FRET: inhibitors of Vif binding to APOBEC3G peptide, primary screen, biochemical, TR-FRET, GST-Vif 1-94, biotin-A3G peptide, dose response retest (AID 1117319) | TR-FRET GST-Vif / biotin-A3G peptide binding; higher % means a stronger effect; test concentration not given here; strong numbers were not always called active | inhibition, %, or IC50 in µM where a hit was titrated | 0.57% of 260,000 active;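 active means above the screen mean plus three standard deviations and confirmed in dose response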;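 further: Vif residues 1-94 fused to GST binding biotinylated APOBEC3G peptide 110-148; 0% = full assay without inhibitor and 100% = GST in place of GST-Vif; retest series ran down from 100 µM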
E coli growth: E. coli growth inhibition, primary screen, OD600; Escherichia coli growth, 23 h; active compounds read low; OD600 absorbance (no concentration beside the values); 0.21% of 330,000 active; AID 1053175, 2014;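 active means OD600 absorbance below the run mean of sample wells minus 3.6 SD, in any replicate, cut at about 0.56 in these data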;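 further: stock transfer was 300 nL into about 60 µL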
ALR inh: inhibitors of human ALR sulfhydryl oxidase, primary screen, biochemical, H2O2 detection, HRP-luminol luminescence, single point. inhibition, % (test concentration not listed). 3.8% of 290,000 active. FAD-linked sulfhydryl oxidase ALR (Homo sapiens), P55789. purified ALR, DTT oxidation;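 active means mean and each replicate at 75% or more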;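 further: stock transfer was 7.5 nL into about 7.5 µL; 0% = neutral wells and 100% = wells with inactivated enzyme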
MLL AF4-AF9 inh: inhibitors of AF4 peptide binding to AF9, primary screen, biochemical, AlphaScreen, biotin-AF4 peptide, FLAG-AF9, single point | Protein AF-9 (Homo sapiens), P42568 | inhibition, % at 10 µM | 0.47% of 350,000 active | AID 651704, 2012;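 active means every replicate reaching a set inhibition limit, whatever the replicate mean, cut at about 25% in these data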;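 further: 0% = plate neutral control median and 100% = total signal loss; the record names both 10 and 1 µM as test concentration; the first replicate is given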
Target sequence (P42568 whole entry, looked up): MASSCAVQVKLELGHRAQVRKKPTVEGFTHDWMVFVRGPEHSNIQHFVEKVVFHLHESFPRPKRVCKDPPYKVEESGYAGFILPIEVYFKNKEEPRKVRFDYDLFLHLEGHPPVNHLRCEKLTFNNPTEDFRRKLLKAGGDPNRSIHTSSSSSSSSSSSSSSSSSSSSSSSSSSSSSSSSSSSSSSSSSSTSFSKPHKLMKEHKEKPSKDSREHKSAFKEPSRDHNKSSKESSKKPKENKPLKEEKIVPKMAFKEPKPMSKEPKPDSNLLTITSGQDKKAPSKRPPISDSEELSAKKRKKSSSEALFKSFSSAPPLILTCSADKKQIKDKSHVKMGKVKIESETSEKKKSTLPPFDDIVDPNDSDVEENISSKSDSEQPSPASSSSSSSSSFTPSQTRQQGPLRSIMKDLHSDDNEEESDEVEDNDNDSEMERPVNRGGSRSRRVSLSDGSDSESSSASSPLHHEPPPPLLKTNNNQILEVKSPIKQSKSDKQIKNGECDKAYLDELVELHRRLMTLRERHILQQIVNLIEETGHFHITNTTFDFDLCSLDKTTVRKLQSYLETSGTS
HNF4A DNA FP: change in binding of human HNF4A to DNA, primary screen, biochemical, fluorescence polarization, FITC-DNA; Hepatocyte nuclear factor 4-alpha (Homo sapiens), P41235; 0.3% of 360,000 active; 1 h; AID 1224865, 2016; activity change, % at 10 µM; in the data active means activity change above about 30%, passing the limit was not always enough;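 further: controls were the assay level and a saturating level of protein; the project sought stronger binding though the title names inhibitors; some compounds called inactive have numbers as strong as hits; positive values seem to mean higher polarization but the record does not say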
Target sequence (P41235 whole entry, looked up): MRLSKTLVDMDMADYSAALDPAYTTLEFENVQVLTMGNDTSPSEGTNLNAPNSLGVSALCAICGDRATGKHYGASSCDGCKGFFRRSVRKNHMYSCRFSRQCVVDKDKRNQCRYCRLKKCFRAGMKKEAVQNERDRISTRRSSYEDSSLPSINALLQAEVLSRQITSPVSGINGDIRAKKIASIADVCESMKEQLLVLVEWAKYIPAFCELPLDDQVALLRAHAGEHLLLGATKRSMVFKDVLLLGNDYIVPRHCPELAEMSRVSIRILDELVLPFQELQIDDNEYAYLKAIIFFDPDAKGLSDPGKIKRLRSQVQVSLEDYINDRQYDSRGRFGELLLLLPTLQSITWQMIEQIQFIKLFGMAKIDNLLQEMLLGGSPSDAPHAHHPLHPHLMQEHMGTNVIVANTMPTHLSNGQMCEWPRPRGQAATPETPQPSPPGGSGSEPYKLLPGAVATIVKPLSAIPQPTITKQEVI
FGF22 binding: binders of human FGF22 protein, primary screen, FGF22 synaptogenesis inhibitor project, biophysical, thermal shift, single point; Fibroblast growth factor 22 (Homo sapiens), Q9HCT0; calls only at 9.99 µM; recombinant FGF22 thermal shift, SYPRO orange fluorescence; percent of sucrose octasulfate shift, DMSO zero; 1.5% of 340,000 active;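 active means melting point raised past a set limit in the mean and every replicate; three in four hits are not shown here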
rRNA inh HTS: reduced GFP signal of wild-type E. coli, primary screen, bacterial rRNA inhibitor project, GFP/RFP fluorescence, OD600, single point. E. coli WT GFP vs humanized-ribosome RFP mutants, 24 h; active compounds read low; DMSO median 0, no signal -100. AID 720706, 2013. GFP signal change (wild-type ribosome), % (concentration not given with the values). 1.6% of 350,000 active;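 active means significant combined selectivity score with lowered wild-type GFP, culture density cut under 30%, mutant RFP and density less affected; inactive means any of these conditions unmet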; further: one replicate is shown; some compounds called inactive have numbers as strong as hits
rRNA inh HTS OD600: second read-out of rRNA inh HTS, no call of its own (marks repeat the call); OD600 change, %; measured here: OD600 growth;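 optical density of the mix in the first replicate; 0 = DMSO median and -100 = no signal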
rRNA inh HTS RFP: further read-out of rRNA inh HTS, marked with its call; RFP signal change, %; measured here: RFP humanized mutant strains;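 first replicate; 0 = DMSO median and -100 = no signal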
Active calls of the source: *; i = inactive; . = no result given; & = joins results of further samples.

SMILES	Vif TR-FRET	E coli growth	ALR inh	MLL AF4-AF9 inh	HNF4A DNA FP	FGF22 binding	rRNA inh HTS	rRNA inh HTS OD600	rRNA inh HTS RFP
COc1ccc(NC(=O)N[C@@H]2C=C[C@H](CC(=O)NCc3ccccn3)O[C@@H]2CO)cc1	.	.	.	-0.5	.	i	1	2	-4.0
O=C(NC(c1ccccc1)c1ccsc1)C1CCN(CCOc2ccc(Cl)cc2Cl)CC1 (configuration not stated)	.	.	.	-3.5	2.2	i	-61	-82	-20
COc1ccc(N2CCN(C(=O)CCN3C(=O)C4C5C=CC(C5)C4C3=O)CC2)cc1 (configuration not stated)	12%	0.68	68	-0.5	0.7	.	16	4	-3.6
COc1cc(Cn2cnnn2)ccc1O	-11%	.	81*	.	-1.8	.	.	.	.
C[C@H](CO)N1C[C@H](C)[C@H](CN(C)C(=O)CCC(F)(F)F)OCCCC[C@H](C)Oc2ccc(NC(=O)CCC(F)(F)F)cc2C1=O	.	.	.	-4.7	.	i	-4	-1	-0.1
Cc1cccc(OCCN2CCOCC2)c1C	.	0.7	-2	-3.5	3.7	i	12	9	-7.4
CC1(C)CC(=O)C=C(CN2C(=O)c3ccccc3C2=O)C1=O	.	0.72	1	-1.8	2.1	i	16	9	-4.3
O=C(O)CC1CCC1CC(=O)O (configuration not stated)	9%	.	.	-1.7	-1.5	i	7	16	-3.0
O=S(=O)(c1ccc(-c2ccon2)s1)N1CCN(c2ccccn2)CC1	3%	0.71	.	1.6	-1.5	i	16	10	13
COc1ccc(-c2nc(/C=C3\C(C)=Nc4ccccc43)c(O)o2)cc1	8%	0.71	-7	1.6	24	i	5	-21	-2.3
O=C(/C=C/c1ccccc1)NC1CCS(=O)(=O)C1 (configuration not stated)	5%	0.62	-11	.	1.2	.	.	.	.
CCCCSc1nc2ccc(Nc3nc(N4CCOCC4)nc(N4CCOCC4)n3)cc2s1	7%	0.77	90*	.	-0.4	.	.	.	.
NS(=O)(=O)c1ccc(S(=O)(=O)c2ccccc2)nc1	.	0.66	-2	.	-1.4	.	.	.	.
O=C(N[C@H]1CC[C@@H](CC(=O)N2CCc3ccccc3C2)O[C@H]1CO)C1CCC1	.	.	.	-20	.	i	4	2	-2.5
CC(C)NC(=O)NC(=O)COC(=O)c1ccc(F)cc1F	1%	0.6	.	.	1.0	.	.	.	.
O=c1ccnc(Nc2ccc([N+](=O)[O-])cc2)[nH]1	.	0.6	-7	4.3	-2.5	i	-5	-7	1.7
O=C(CC1C(=O)NCCN1CC(c1ccccc1)c1ccccc1)NCC1CCOCC1 (configuration not stated)	-1%	0.74	0	6.5	-0.1	i	7	19	1.6
CCn1c(C)c(C)c2cc(C(=O)NCCCN3CCN(C)CC3)ccc21	.	0.66	3	1.7	4.7	i	3	0	1.5
Cn1c(=O)n(C)c2cc(NC(=O)c3ccccc3[N+](=O)[O-])c(Br)cc21	1%	0.68	-3	-2.4	-4.7	i	3	4	-1.3
CCOc1ccc(CNC(=O)c2ccc(NC(=O)C3=CSCCO3)cc2)cc1	2%	0.68	-8	0.6	-2.2	i	4	11	-0.9
CN(CCC#N)C(=O)COC(=O)/C=C/c1ccc2c(c1)OCO2	-1%	0.65	-10	-13	8.6	i	12	22	-0.8
COC(=O)CN(c1cc(OC)ccc1OC)S(=O)(=O)c1ccc(OC)c(OC)c1	1%	0.73	-5	.	-1.9	.	.	.	.
CCN(CC)C(=O)CN1C(=O)C2CC=C(Cl)CC2C1=O (configuration not stated)	0%	.	1	.	-4.4	.	.	.	.
CC(C)=CCCC(C)c1cc(C(=O)NCCc2ccc(O)cc2)c(N)s1 (configuration not stated)	.	.	.	-4.4	52*	i	7	7	-2.3
O=C(C1CCC1)N1CCCCN2[C@H](C1)[C@H](c1ccc(-c3ccncc3)cc1)[C@@H]2CO	.	.	.	2.4	.	i	2	6	-2.9
Cc1ccc(C)c(/C=N/n2cc(-c3ccccc3)[nH]c2=S)c1	-9%	.	.	1.3	2.5	i	7	20	0.4
O=C(C[C@H]1C=C[C@@H](NS(=O)(=O)c2ccccc2)[C@@H](CO)O1)N1CCC(Cc2ccccc2)CC1	.	.	.	1.4	.	i	-1	-12	-3.8
O=C(Nc1ccccc1)c1ccc(NCCN2C(=O)CCC2=O)c([N+](=O)[O-])c1	-4%	0.66	3	-2.1	3.9	.	20	15	-0.4
Cc1noc(C)c1NC(=O)Nc1ccc2c(c1)C(=O)N([C@@H](C)CO)C[C@@H](C)[C@@H](CN(C)C(=O)Nc1cccc3ccccc13)O2	.	.	.	-2.2	.	i	3	-1	-0.2
O=C1CCc2cc(S(=O)(=O)NC(Cc3ccccc3)C(=O)NCC3CCCO3)ccc2N1 (configuration not stated)	64%	0.74	-101	5.2	-0.5	i	6	-1	0.3
CN(C)c1ccc(NC(=O)Nc2cccc(Cl)c2)cc1	>52µM*	0.73	23	.	-0.2	.	.	.	.
O=C(C[C@@H]1C[C@@H]2c3cc(NC(=O)Nc4ccccc4)ccc3O[C@@H]2[C@H](CO)O1)NC1CCCCC1	.	.	.	-0.8	.	i	-2	-2	0.1
COc1cccc2cc(/C(C)=N/Nc3nc(-c4cc(C)ccc4C)cs3)c(=O)oc12	8%	.	-5	.	1.1	.	.	.	.
Cc1ccc(S(=O)(=O)N2CCN(C(=O)COC(=O)c3cccc(Cl)c3)CC2)c(C)c1	4%	0.72	-12	-5.9	0.8	i	-20	-16	0.2
CC(NC(=O)c1ccco1)C(c1cccs1)N1CCN(c2ccc(F)cc2)CC1 (configuration not stated)	11%	0.71	99*	-25	-0.4	i	2	3	1.1
CCOC(=O)c1cc(C(C)(C)C)n(CCCN2CCOCC2)c1C	4%	0.66	-3	2.6	4.0	i	2	-1	4.1
COc1ccc(-c2cc(-c3cccs3)c(C#N)c(SCC(=O)NCc3ccccc3OC)n2)cc1	-12%&-10%	0.78	5	.	2.6	.	.	.	.
C[C@@H]1CN([C@@H](C)CO)C(=O)Cc2cc(NS(C)(=O)=O)ccc2O[C@H]1CN(C)Cc1ccc(C(=O)O)cc1	.	.	.	-3.9	.	i	0	0	-1.4
CC(C)(Oc1ccc(Cl)cc1)C(=O)NCc1n[nH]c(=O)c2ccccc12	5%	0.69	2	-1.0	-1.1	i	3	0	-3.3
CC(C)c1ccc(S(=O)(=O)N2CCN(C(=O)n3ccnc3)CC2)cc1	2%	0.68	-2	1.5	2.6	i	3	0	-1.9
CCOC(=O)C1(Cc2cccc(Cl)c2)CCCN(C(=O)c2cc(C(C)C)nn2C)C1 (configuration not stated)	-4%	0.66	0	-2.2	1.7	i	5	14	1.0
Cc1ccccc1Nc1nc(N)nc(COC(=O)c2ccc([N+](=O)[O-])o2)n1	-7%	0.67	-13	-1.3	1.9	i	-2	14	-3.1
COc1cc(OC)c(C#N)c(S(=O)Cc2ccccc2)c1 (configuration not stated)	-1%	0.71	-7	.	-1.2	.	.	.	.
COC(=O)C1CCN(C(=O)COC(=O)c2n[nH]c3ccccc23)CC1	5%&-1%	0.68	-7	.	2.9	.	.	.	.
O=C(c1ccncc1)c1ccc(Br)cc1	1%	0.72	1	.	-4.2	.	.	.	.
CCn1cc([N+](=O)[O-])c(C(=O)N2CCOCC2)n1	-5%	0.71	.	.	-0.5	.	.	.	.
Cc1ccc(NC(=O)CNc2cccc(S(=O)(=O)N3CCCCC3)c2)cc1F	7%	0.7	-2	-5.0	-2.4	i	1	1	-0.4
CCOc1ccc(CCNC(=O)COC(=O)CNS(=O)(=O)c2ccc(NC(C)=O)cc2)cc1OCC	3%	0.67	0	-3.8	4.7	i	13	7	0.6

Exported bar-delimited: entries from further up
smiles | Vif TR-FRET | E coli growth | ALR inh | MLL AF4-AF9 inh | HNF4A DNA FP | FGF22 binding | rRNA inh HTS | rRNA inh HTS OD600 | rRNA inh HTS RFP
COc1ccc(-c2cc(-c3cccs3)c(C#N)c(SCC(=O)NCc3ccccc3OC)n2)cc1 | -12%&-10% | 0.78 | 5 | . | 2.6 | . | . | . | .
Cc1ccc(NC(=O)CNc2cccc(S(=O)(=O)N3CCCCC3)c2)cc1F | 7% | 0.7 | -2 | -5.0 | -2.4 | i | 1 | 1 | -0.4
CCOc1ccc(CCNC(=O)COC(=O)CNS(=O)(=O)c2ccc(NC(C)=O)cc2)cc1OCC | 3% | 0.67 | 0 | -3.8 | 4.7 | i | 13 | 7 | 0.6
CC(C)c1ccc(S(=O)(=O)N2CCN(C(=O)n3ccnc3)CC2)cc1 | 2% | 0.68 | -2 | 1.5 | 2.6 | i | 3 | 0 | -1.9

The list goes on:
SMILES	Vif TR-FRET	E coli growth	ALR inh	MLL AF4-AF9 inh	HNF4A DNA FP	FGF22 binding	rRNA inh HTS	rRNA inh HTS OD600	rRNA inh HTS RFP
Cc1ccc(CNC(=O)c2ccc(N3CCC4(CC3)CC(c3cccc(Br)c3)=NO4)c(NC(=O)c3ccc(Br)cc3)c2)cc1	.	0.75	1	-3.1	14	i	9	-1	-2.1
CC(Sc1nc(-c2ccco2)nc2c1c(=O)n(C)c(=O)n2C)C(=O)O (configuration not stated)	4%	0.66	-2	-0.9	-7.6	i	-3	3	0.0
CC(C)(C)NC(=O)Cn1cc(C#N)c2cc(Br)ccc21	5%	0.74	-4	.	0.7	.	.	.	.
CC(=O)N1CCC(C(=O)c2ccc(Cl)cc2)CC1	28%	0.69	-11	.	2.3	.	.	.	.
CCOC(=O)C1CCN(C(=O)CCc2nc3sc4c(c3c(=O)[nH]2)CCCC4)CC1	1%	0.68	-10	-1.7	15	.	2	3	1.6
CCN(CC)CCCNC(=S)N1CCN(c2nc(-c3ccccc3)cs2)CC1	.	0.66	22	19	6.2	i	-22*	-17*	5.7*
COc1ccc2c3c([nH]c2c1)[C@H](CO)N(C(=O)C1CCCC1)CC31CN(S(C)(=O)=O)C1	.	.	.	1.0	.	i	-2	-9	0.5
NCCCC[C@H](N[C@@H](CCc1ccccc1)C(=O)O)C(=O)N1CCC[C@H]1C(=O)O	-1%	0.69	-5&1	-0.6&-5.7	1.2&4.2	i	13	19	2.3
C[C@@H]1CN([C@H](C)CO)S(=O)(=O)c2ccc(C3=CCCC3)cc2O[C@H]1CN(C)C(=O)c1ccncc1	.	.	.	-1.3	.	i	5	6	-2.6
COc1ccccc1NS(=O)(=O)c1cc(NC(=O)c2cc[n+]([O-])cc2)ccc1N1CCCC1	5%	0.66	40	2.7	0.5	i	-31	-32	-12
CCOC(=O)c1ccccc1NC(=S)N1CCN(C2CCCCC2)CC1	1%	0.69	3	0.3	-5.8	i	1	11	-0.7
CO[C@H]1CN(C)C(=O)c2ccc(NC(=O)c3ccno3)cc2OC[C@@H](C)N(S(C)(=O)=O)C[C@H]1C	.	.	.	-6.1	.	i	4	12	0.8
CCOC(=O)c1cnc2cc(C)nn2c1-c1ccccc1	8%	0.71	-16	.	-1.4	.	.	.	.
CC(C)CN(C(=O)COC(=O)c1cnccn1)c1c(N)n(Cc2ccccc2)c(=O)[nH]c1=O	7%	0.72	1	-0.6	-1.3	i	13	12	0.3
O=S(=O)(N[C@@H]1CC[C@H](CCn2cc(C3(O)CCCC3)nn2)O[C@H]1CO)c1ccccc1	.	.	.	-1.7	.	i	0	-3	-0.5
CCN(CC(=O)NC1CCS(=O)(=O)C1)C(=O)c1cc(OC)c(OC)c(OC)c1 (configuration not stated)	9%	0.71	.	-1.0	-1.0	i	15	11	-1.1
CC(NC(=O)c1ccccc1SCC(=O)N1CCCC1)c1ccccc1 (configuration not stated)	-11%	0.73	-2	-5.6	4.0	i	-1	-1	-0.8

These rows are one share of the data. The share of hits here may be higher or lower than overall.
